YopH inh = YopH tyrosine phosphatase inhibitors, primary screen, biochemical, fluorescence Ex485/Em525; YopH tyrosine phosphatase [Yersinia enterocolitica]; inhibition, %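 (about 10 µM by stock and volumes)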; hit rate 0.16% among 140,000; AID 898, 2007;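 active = inhibition of 50% or more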;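 note: controls were vehicle for no effect and minimum signal wells for full effect; inactives centre near -20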
Arbovirus inh = antivirals against arbovirus infection, primary screen, cell-based, full library, 10K replicate subset. arbovirus infection cell-based antiviral screen. inhibition, % at 10 µM. hit rate 0.37% among 200,000. AID 1251, 2008;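 active = inhibition from about 30%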;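 note: bluetongue infection of BSR cells; cell survival read as ATP light after 72 h; 0% = infected wells without compound and 100% = uninfected wells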
Mtb betalactam = beta-lactam sensitization of Mtb H37Rv, H37Rv. M. tuberculosis H37Rv growth with meropenem, percent inhibition; hits of this screen are not shown here. inhibition, % at 25 µM. hit rate 0.27% among 330,000;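 active = about 74% or more and at least 40 points above the plate without the antibiotic, then above 30% in a dose series; inconclusive = first-round hits that could not be retested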;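 note: growth measured after seven days incubation then overnight dye step; 0% = bacteria only wells and 100% = bacteria with antibiotic; twin plates without the antibiotic show which effects depend on it; some results filed as inactive read as strong as hits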
Mtb growth = M. tuberculosis H37Rv growth inhibitors, H37Rv strain (AID 1626); M. tuberculosis H37Rv growth inhibition; higher % means a stronger effect; one-dose inhibition, % at 10 µM; IC50 in µM for titrated hits; hit rate 0.95% among 220,000;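 active = confirmed in a dose series; inconclusive = inhibition above 80% but not taken into the dose series; inactive = below 80% or under 30% at every dose of the series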;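 note: bacteria incubated seven days before Alamar blue readout; 0% = bacteria only wells and 100% = bacteria with antibiotic wells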
RecA splice inh = Mtb RecA intein splicing inhibitors, primary screen, biochemical, fluorescence, HTS | hit rate 0.75% among 290,000 | inhibition, %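 (about 9 µM by stock and volumes)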 | cell-free RecA intein splicing | Protein RecA (Mycobacterium tuberculosis (strain ATCC 25618 / H37Rv)), P9WHJ3; in the data active = inhibition above about 30%; inconclusive = no clear call, values can overlap the other calls;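 note: 0% = vehicle wells and 100% = reference inhibitor control wells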
Target sequence (P9WHJ3 whole entry, looked up, canonical isoform): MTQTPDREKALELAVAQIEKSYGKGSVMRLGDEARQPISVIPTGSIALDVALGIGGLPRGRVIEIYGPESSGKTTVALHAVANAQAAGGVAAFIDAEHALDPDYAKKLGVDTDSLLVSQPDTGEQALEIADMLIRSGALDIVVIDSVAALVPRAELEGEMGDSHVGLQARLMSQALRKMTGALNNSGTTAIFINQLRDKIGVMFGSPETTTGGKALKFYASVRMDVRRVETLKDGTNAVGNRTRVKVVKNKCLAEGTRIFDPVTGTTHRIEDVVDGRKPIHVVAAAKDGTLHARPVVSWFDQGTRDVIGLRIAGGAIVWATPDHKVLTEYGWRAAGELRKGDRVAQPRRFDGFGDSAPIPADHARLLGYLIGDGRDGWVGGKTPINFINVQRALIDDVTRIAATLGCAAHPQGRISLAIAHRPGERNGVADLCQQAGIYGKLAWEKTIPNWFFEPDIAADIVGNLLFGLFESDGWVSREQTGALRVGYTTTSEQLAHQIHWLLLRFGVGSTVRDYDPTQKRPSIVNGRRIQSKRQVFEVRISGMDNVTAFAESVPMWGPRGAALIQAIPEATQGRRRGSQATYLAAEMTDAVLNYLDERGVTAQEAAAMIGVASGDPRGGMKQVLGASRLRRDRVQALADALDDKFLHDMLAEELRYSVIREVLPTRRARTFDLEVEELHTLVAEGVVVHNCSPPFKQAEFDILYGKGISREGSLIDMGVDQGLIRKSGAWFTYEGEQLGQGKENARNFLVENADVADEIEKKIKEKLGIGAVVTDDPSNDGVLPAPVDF
Arbovirus inh repeat = also measured in Arbovirus inh; calls as there; inhibition, %; measured here: 10K subset replicate screen; many hits read low in the repeat;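 first of two repeat runs on a subset; 0% = infected and 100% = uninfected wells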
Starred values were filed as active, the others as inactive; ? = inconclusive; / = no result given. These rows are one share of the data; rates above refer to the full screens.

SMILES	YopH inh	Arbovirus inh	Mtb betalactam	Mtb growth	RecA splice inh	others
CN1CCC(O)(c2cccs2)C(C(=O)c2cccs2)C1 (configuration not stated)	/	/	100	/	-2.2
Cc1cc2nc(CN(C)Cc3c(C(=O)N(C)C)nc4ccc(Cl)cn34)[nH]c2cc1C	/	-7	-2	3%	2.2
COc1ccc(C(=O)N/N=C(\c2ccccc2)c2ccccn2)cc1	23	-26	98	?	2.7
CCN1CCN(c2oc(COc3ccc(-c4ccccc4)cc3)nc2C#N)CC1	-34	-19	94	11%	8.0
CCOC(=O)C(Cc1c[nH]c2ccccc12)NC(=O)c1ccco1 (configuration not stated)	-26	-7	-1	-2%	0.3
COc1ccc(CCNC2CC(=O)N(CCc3ccccc3)C2=O)cc1OC (configuration not stated)	-33	/	1	-15%	-1.3
Cc1ccc(C)c(-c2csc(NC(=O)c3cnccn3)n2)c1	/	-5	95	2.6µM*	-0.5
O=c1c2cc(Br)ccc2nc(-c2ccc([N+](=O)[O-])cc2)n1O	/	-7	97	?	/
Cc1cccc(OCC(=O)Nc2cccc(C(=O)Nc3ccccc3C(=O)O)c2)c1	-20	55*	3	4%	-0.7
O=C(COc1cc(Cl)ccc1Cl)Nc1ccc2[nH]c(=O)[nH]c2c1	/	/	0	/	-3.2
CCCCN(C(=O)/C=C/c1ccc(OCC(C)C)c(OCC)c1)c1c(N)n(CCC)c(=O)[nH]c1=O	/	-12	4	2%	0.7
CCOc1ccc(CNC(=O)Cn2ccc3cc(S(=O)(=O)N4CCCCCC4)ccc32)cc1	/	/	-7	/	12
COCCCn1c(SCC(=O)Nc2oc(C)c3c(C)n[nH]c(=O)c23)nc2ccccc2c1=O	/	/	1	/	-2.5
CCOC(=O)c1c(-c2ccc(C)s2)csc1N	/	-17	13	4%	-1.7
CCc1cccc(CC)c1NC(=O)c1cccc(S(=O)(=O)N2CCN(C)CC2)c1	/	/	2	/	-0.8
COc1ccc(CCNC(=O)C2CCN(S(=O)(=O)c3cccc4cccnc34)CC2)cc1OC	/	/	-3	/	-5.1
COc1cccc(-c2ccc(SCC(=O)NC3CCCCC3)nn2)c1	/	/	-3	/	2.2
COc1ccc(C2/C=C\CN(C(=O)Oc3ccccc3)CC(=O)N2Cc2ccc(F)cc2)cc1 (configuration not stated)	/	/	/	1%	5.6
COc1ccccc1C(=O)COC(=O)Cc1c[nH]c2ccccc12	/	/	-15	/	-2.7
CCC1=Nc2cc(C(=O)NCCCN3CCOCC3)ccc2Sc2ccc(Br)cc21	/	/	4	/	6.3
CCc1ccc(OCCCN=C(C)c2c(O)n(C)c(=O)n(C)c2=O)cc1	-38	-5	7	17%	1.4	Arbovirus inh repeat=-4
CCCCN1C(=O)N(C)C2C1N(C)C(=O)N2CCCC (configuration not stated)	-12	0	-14	3%	0.6
CC(C)c1ccc(NC(=O)C(c2ccccc2)N2CC(=O)Nc3ccccc32)cc1 (configuration not stated)	-26	-10	-3	/	-3.5
Nc1cccc(Oc2c(F)c(F)c(Oc3cccc(N)c3)c(F)c2F)c1	/	/	2	-5%	6.5
O=C(COc1ccccc1Cl)Nc1nnc(S(=O)(=O)N2CCCCCC2)s1	/	/	2	/	2.1
CSc1nc2cc(C)nn2c(-c2ccccc2)c1C#N	/	/	-3	5%	4.0
C=CCN1C=C2C(=O)C(C)(OC(=O)CC)C(=O)C=C2C=C1CCCC (configuration not stated)	/	/	-8	-2%	-5.7
O=C(NNC1OC(CO)C(O)C(O)C1O)c1cccc(Br)c1 (configuration not stated)	/	-2	1	4%	/
O=c1c2cc(-c3ccccc3)sc2nc2n1CCC2	/	-13	9	4%	1.0
O=C(Nc1ccc2c(c1)OCO2)N1CCN(c2cccc(C(F)(F)F)c2)CC1	-83	-36	-2	2%	-0.3
CCc1cccc(C)c1NC(=O)Cn1nc(C)n2cccc2c1=O	/	/	-4	/	1.0
CCn1nnnc1NCc1ccc(Cl)cc1	/	/	-4	/	0.2
COCCCNC(=O)c1c[nH]c2ccc(S(=O)(=O)N3CCc4ccccc43)cc2c1=O	/	-1	-5	4%	-3.1
Cn1c(SCCN2CCCC2)nnc1C1CCN(S(=O)(=O)c2cccc(F)c2)CC1	/	/	2	/	7.9
CC(O)c1nc2ccccc2n1C1CCCCC1 (configuration not stated)	-16	3	7	-5%	0.0
O=C(O)CCN1C(=O)/C(=C\c2cccc(Oc3ccccc3)c2)SC1=S	/	/	-1	/	27
CCOC(=O)Cc1csc(NC(=O)CSc2nnnn2-c2ccc(CC)cc2)n1	-38	16	5	10%	4.8
NS(=O)(=O)c1ccc(NC(=O)COC(=O)C2CCCCC2)cc1	/	2	-1	1%	-1.7
Brc1ccc(Sc2cnc3ccccc3n2)cc1	-16	5	-3	5%	16
Cc1ccccc1C(=O)c1cccn1CC(=O)NC1CCCC(C)C1C (configuration not stated)	/	/	-4	/	2.8
CCN(CC)c1ccc(NC(=S)NC(=O)C2CCC2)cc1	/	/	95	/	-2.9
CC1=CC(=O)N(c2cccc(C(F)(F)F)c2)C1c1ccc(Cl)cc1 (configuration not stated)	-45	-28	3	5%	13
CC(C)C(=O)Nc1cccc(NC(=O)CCN2C(=O)c3ccccc3S2(=O)=O)c1	-3	-3	-6	-5%	-1.0
O=C(NCCS(=O)(=O)NCc1ccc(F)cc1)c1ccc2c(c1)OCO2	/	/	1	/	-2.9
COc1cccc(OCC(=O)Nc2c3c(nn2-c2ccc(F)cc2)CS(=O)(=O)C3)c1	/	/	2	/	-5.1
COc1ccccc1N1CCN(C2CCCN(C(=O)CN3CCCC3=O)C2)CC1 (configuration not stated)	/	/	-4	/	-0.8
C(#CCN1CCOCC1)COCCCOC(c1ccccc1)c1ccccc1	-9	-8	4	-3%	2.7
O=C(CSCc1nc2ccccc2[nH]1)Nc1ccccc1	-33	1	/	1%	1.3
CCOc1ccc2nc(N/C(N)=N/C(=S)Nc3cccc(C)c3)nc(C)c2c1	-44	8	96	?	-1.5
Cc1c(CN(C)C(=O)c2ccc(Br)o2)cnn1C	-24	8	-10	-15%	0.3
CCN(CC)CCOC(=O)c1ccc(N/C=C(/C#N)c2nc(-c3cccc(OC)c3)cs2)cc1	/	/	100	4.4µM*	3.7
Cc1ccc(-c2cc(C(=O)NCCCN3CCOCC3)c3ccccc3n2)cc1C	/	/	0	/	0.9
CCCCOc1[nH]c2nc(-c3ccco3)n(Cc3ccco3)c(=N)c2c1C#N	-26	-10	5	4%	-25
COC(=O)c1ccc(C(=O)OC)c(NC(=O)CSCC(=O)O)c1	/	/	-2	13%	-0.2
Cc1ccc(NC(=O)C2CC(=O)n3c(nc4ccccc43)N2)cc1Cl (configuration not stated)	/	-11	1	-3%	2.1
Cc1cc(=O)c(C(=O)O)nn1-c1ccccc1[N+](=O)[O-]	/	/	5	/	-0.1
CCOC(=O)N1CCN(c2cccc(C)c2C)CC1	-29	1	1	2%	2.9
Cc1ccc(C(=O)NC(C)C2CCCO2)o1 (configuration not stated)	/	/	-20	/	-2.8
C[C@@H](NC(=O)c1coc(=O)c(Br)c1)c1ccccc1	6	2	15	-5%	0.1	Arbovirus inh repeat=6
CC(C)CNS(=O)(=O)c1cc(C(=O)O)c(Cl)cc1Cl	/	/	-10	-2%	-0.5

6 compounds from above, ordered by heavy-atom count, smallest number first:
SMILES	YopH inh	Arbovirus inh	Mtb betalactam	Mtb growth	RecA splice inh	others
Cc1ccc(C(=O)NC(C)C2CCCO2)o1 (configuration not stated)	/	/	-20	/	-2.8
CC(C)CNS(=O)(=O)c1cc(C(=O)O)c(Cl)cc1Cl	/	/	-10	-2%	-0.5
Cc1cc(=O)c(C(=O)O)nn1-c1ccccc1[N+](=O)[O-]	/	/	5	/	-0.1
CCCCOc1[nH]c2nc(-c3ccco3)n(Cc3ccco3)c(=N)c2c1C#N	-26	-10	5	4%	-25
COc1ccccc1N1CCN(C2CCCN(C(=O)CN3CCCC3=O)C2)CC1 (configuration not stated)	/	/	-4	/	-0.8
Cc1ccc(-c2cc(C(=O)NCCCN3CCOCC3)c3ccccc3n2)cc1C	/	/	0	/	0.9

Next part:
SMILES	YopH inh	Arbovirus inh	Mtb betalactam	Mtb growth	RecA splice inh	others
NC(=O)C1CCN(c2ccnc3cc(Cl)ccc23)CC1	/	0	-3	-19%	-2.2
O=C(NCc1ccco1)C1CCN(Cc2ccc(F)cc2)CC1	-26	-14	-3	1%	0.6
CCOC(=O)c1c(NC(=O)CSc2nc3ccc(OC)cc3[nH]2)sc2c1CC(C)(C)NC2(C)C	/	/	78	/	1.8
CC1(C)C=C2C(=NN(c3ccccc3)C(N)=C2C#N)CO1	/	/	-6	/	90*
CCOC(=O)c1ccc(NC(=O)NC2CCN(CC(=O)NCc3ccc4c(c3)OCO4)CC2)cc1	-2	-12	51	7%	-4.4
Cc1ccnc2c(N3C(=O)C4C5c6ccccc6C(c6ccccc65)C4C3=O)cccc12 (configuration not stated)	-18	-3	7	-4%	-2.3
CCCOc1ccc(C2C(C#N)=C(N)Oc3nc[nH]c(=O)c32)cc1OC (configuration not stated)	-62	3	2	-3%	0.5
CCOc1ccc(S(=O)(=O)n2ccnc2)c2ccccc12	-45	-1	-1	3%	-1.9	Arbovirus inh repeat=-2
Cc1cccc(NC(=O)CN(C)S(=O)(=O)c2ccc(Cl)cc2)n1	-20	2	-13	-11%	1.2
COc1ccc(S(=O)(=O)Nc2ccc(F)cc2F)cc1C(=O)N1CCOCC1	/	/	-4	/	3.7
O=S(=O)(c1ccc2nnn(OCc3ccccc3)c2c1)N1CCOCC1	/	/	-8	/	-1.6
CCOC(=O)c1cnc(-n2nc(C)cc2C)nc1Nc1ccc(N(C)C)cc1	-1	-22	1	<0.2µM*	3.6
CN1c2ccsc2C(=O)/C(=C\Nc2cccc(C(F)(F)F)c2)S1(=O)=O	/	/	-9	-6%	-4.4
COc1ccc(CSc2nncn2N)cc1[N+](=O)[O-]	-46	-2	-4	11%	-2.8
Cc1ccc(S(=O)(=O)N[C@@H](CO)C(=O)N[C@@H](Cc2ccc(O)cc2)C(=O)O)cc1	/	/	-9	/	-1.2
CC(C)(Nc1ccccc1)C(=O)c1ccccc1	0	11	1	1%	-0.7
CCN(CC)S(=O)(=O)c1csc(C(=O)NC2CCCCC2)c1	-8	1	?	-4%	0.0
C=CCNC(=S)NNC(=O)c1ccc(OCC)cc1	-23	13	0	/	6.5
Cc1cc(OCC(=O)NCc2ccc(S(N)(=O)=O)cc2)c2c3c(c(=O)oc2c1)CCC3	/	/	7	/	1.1
Cc1ccc(C)c(OC(=O)c2ccncc2)c1	-22	0	5	1%	-0.8
O=C(NC1CC2CCCC(C1)N2Cc1ccc(F)cc1)c1ccc(F)cc1 (configuration not stated)	/	/	-15	/	0.1
Cn1c(N)c(C(=O)COC(=O)CC(NC(=O)c2ccccc2Cl)c2ccccc2)c(=O)n(C)c1=O (configuration not stated)	/	4	-16	-2%	0.5
CC(=O)Nc1nc(CC(C)C)cc(-c2ccccc2)c1C#N	/	/	-4	3%	1.7
Cc1cccc(C2(c3cccc(C)c3)OC(=O)c3ccccc32)c1	-36	-16	7	-10%	14
O=C(O)CC(NC(=S)NCc1ccccc1)C(=O)O (configuration not stated)	-19	6	-16	-6%	-1.4
Cc1cccc(N(C(=O)c2cnc3n(c2=O)CCS3)C2CCCCC2)c1	1	-3	?	-6%	2.3
CCC(Oc1ccccc1)C(=O)NCc1cccnc1 (configuration not stated)	-11	4	-2	-5%	0.3
O=C(CCCN1C(=O)c2cccc3cccc(c23)C1=O)Nc1nccs1	/	/	-7	2%	0.5
CCOc1ccc(N2CCc3c(C)nc(SC)nc32)cc1	/	-15	85	<0.2µM*	5.1
COc1ccc(C(C(=O)NC(C)(C)C)N(Cc2ccc(C)cc2)C(=O)CCC(=O)Nc2cc(C)on2)cc1 (configuration not stated)	/	-5	-5	-8%	5.4
O=S(=O)(c1cccc(Br)c1)N1CCN(c2ccnc3cc(Cl)ccc23)CC1	/	/	21	/	16
Cc1ccc(-c2c(C)nn3c(N4CCOCC4)cc(C)nc23)cc1	/	/	10	/	-0.2
NC(=O)c1ccc(NC(=O)c2cccc(Oc3ccccc3)c2)cc1	/	-6	-6	1%	-1.3
CC(C)c1ccc(NC(=S)N2CCN(Cc3ccccc3)CC2)cc1	/	1	1	-6%	1.3
CN(C)c1ccc(NC(N)=S)cc1	-30	-4	14	5%	2.9
COc1ccc(CCN=C(N)NS(=O)(=O)c2ccc(C)c(C)c2)cc1	/	9	1	-4%	-0.9
C(=N\Nc1nc2ccccc2s1)/c1ccc2c(c1)OCO2	-48	14	12	5%	-3.4

Screening data deposited in PubChem BioAssay by several laboratories.
